DUX4 txn inh = blocks DUX4-driven transcriptional activation | 293T-iDUX4 ZSCAN4-Gaussia luciferase reporter, 24 h; stronger effect = lower value | activity change, negative = inhibition, % (no concentration beside the values) | 37,000 compounds, 0.8% hits | AID 1224904;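 active = -10% or lower and over 25 points stronger than a control reporter; inconclusive = -10% or lower with a smaller gap; inactive = above -10%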;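 also: 0% = median of neutral control wells and -100% = median of positive control wells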
DUX4 txn inh difference = recorded beside DUX4 txn inh, whose call it bears; Gaussia minus Italica difference, %; measured here: selective DUX4 reporter inhibition;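 worked out from the two reporters; negative = selective loss of the DUX4 reporter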
DUX4 txn inh control = recorded beside DUX4 txn inh, whose call it bears; activity change, negative = inhibition, %; measured here: Italica tet-on control reporter;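 0 = neutral control and -100 = positive control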
Active calls of the source: *; ? = inconclusive; . = no result given. The list is partial; the hit share may differ from the screen's.

SMILES | DUX4 txn inh | DUX4 txn inh difference | DUX4 txn inh control
CN1C(=O)c2cc(NC(=O)Cc3ccccc3)ccc2OC[C@@H]2O[C@@H](CC(=O)NCc3ccc(Cl)cc3)CC[C@@H]21 | 2 | 0 | 1.7
CCCN1[C@@H]2c3ccc(-c4ccccc4F)c(=O)n3C[C@@H]2[C@@H](CO)[C@@H]1C(=O)N1CCOCC1 | 3 | -8 | 11
O=C(NC[C@H]1[C@@H](c2ccccc2)[C@@H](CO)N1CC1CCCC1)c1cccnc1 | -7 | -10 | 2.8
CO[C@@H]1CN(C)C(=O)c2ccc(NC(=O)C3CCOCC3)cc2OC[C@H](C)N(C(=O)c2ccccc2)C[C@H]1C | -1 | 6 | -7.6
O=C(C[C@@H]1CC[C@H](NC(=O)C2CCOCC2)[C@H](CO)O1)Nc1nccs1 | 7 | 7 | -0.2
CCNC(=O)[C@H]1[C@H](CO)[C@H]2Cn3c(ccc(-c4ccccc4)c3=O)[C@H]2N1Cc1cc(F)ccc1F | -3 | -2 | -1.5
O=C(Cc1cccnc1)N1CC2(C1)[C@H](c1ccccc1)[C@H](CO)N2C(=O)C1CCCCC1 | -3 | -4 | 1.2
COc1ccccc1CNC(=O)C[C@H]1CC[C@@H]2[C@H](COC[C@@H](O)CN2Cc2ccc3c(c2)OCO3)O1 | 2 | 8 | -5.9
CC=Cc1ccc2n(c1=O)C[C@H]1[C@H](CO)[C@@H](C(=O)NC3CCC3)N(Cc3ccncc3)[C@@H]21 (mixture of isomers) | -3 | -7 | 3.9
COc1ccc2c3c(n(C)c2c1)[C@H](CO)N(Cc1cccnc1)CC31CCN(Cc2cccnc2)CC1 | 4 | 0 | 3.2
CCCNC(=O)N1CC2(CN(C(=O)CCC)C2)c2c(n(C)c3cc(OC)ccc23)[C@H]1CO | 22 | 3 | 20
COc1ccc(NC(=O)N2C[C@H](O)COC[C@H]3O[C@H](CC(=O)N4CCOCC4)CC[C@@H]32)cc1 | 5 | 1 | 3.3
CCCNC(=O)C[C@H]1CC[C@H]2[C@@H](COC[C@H](O)CN2C(=O)Nc2c(C)noc2C)O1 | 1 | 2 | -0.1
O=C(C[C@H]1C=C[C@@H](NC(=O)CC2CC2)[C@@H](CO)O1)NCC(F)(F)F | -4 | -3 | -1.2
CCCNC(=O)N[C@H]1CC[C@H](CC(=O)NC2CCC2)O[C@H]1CO | 3 | 1 | 2.2
CC(=O)N1CC2(C1)[C@H](c1ccc(-c3cccc(F)c3)cc1)[C@@H](CO)N2CC1CCCC1 | -9 | -3 | -6.0
CC(=O)N1[C@H](CO)[C@@H](c2ccccc2)C12CN(Cc1cc(F)ccc1F)C2 | -8 | -8 | 0.5
COc1ccc(-c2ccc([C@@H]3[C@@H](CO)N4C(=O)CN(C(=O)NC(C)C)C[C@@H]34)cc2)cc1 | 4 | 5 | -0.8
COc1ccccc1NC(=O)N[C@H]1CC[C@H](CC(=O)N2CCC(Cc3ccccc3)CC2)O[C@@H]1CO | -8 | -5 | -3.0
C[C@@H]1CN([C@H](C)CO)C(=O)c2c(c3ccccc3n2C)-c2ccccc2CO[C@@H]1CN(C)Cc1ccc(C(F)(F)F)cc1 | -43* | -32* | -10*
CN1[C@@H]2Cn3c(ccc(-c4cccc(F)c4)c3=O)[C@H]1[C@@H](C(=O)N1CCOCC1)[C@@H]2CO | 0 | 3 | -3.0
Cc1noc(C)c1NC(=O)N(C)C[C@@H]1OCCCC[C@@H](C)Oc2ccc(NC(=O)Nc3ccc(C(F)(F)F)cc3)cc2C(=O)N([C@H](C)CO)C[C@H]1C | -2 | -1 | -1.3
CCNC(=O)C[C@H]1CC[C@@H]2[C@H](COC[C@H](O)CN2C(=O)Nc2ccc(C(F)(F)F)cc2)O1 | 4 | 5 | -1.2
COC(=O)C[C@H]1CC[C@H]2[C@@H](COc3ccc(NC(=O)NC(C)C)cc3C(=O)N2C)O1 | -4 | -3 | -1.3
CCCC#Cc1ccc([C@@H]2[C@H](CO)N3C(=O)CN(C(=O)Cc4cccnc4)C[C@@H]23)cc1 | 9 | 3 | 6.5

Given with two lines to a compound: part of the list above
Values run as follows: DUX4 txn inh | DUX4 txn inh difference | DUX4 txn inh control
COc1ccc(-c2ccc([C@@H]3[C@@H](CO)N4C(=O)CN(C(=O)NC(C)C)C[C@@H]34)cc2)cc1
 : 4 | 5 | -0.8
COc1ccccc1NC(=O)N[C@H]1CC[C@H](CC(=O)N2CCC(Cc3ccccc3)CC2)O[C@@H]1CO
 : -8 | -5 | -3.0

Next part
SMILES | DUX4 txn inh | DUX4 txn inh difference | DUX4 txn inh control
COCC(=O)Nc1ccc2c(c1)[C@@H]1C[C@@H](CC(=O)NCc3ccccc3F)O[C@H](CO)[C@@H]1O2 | 10 | 11 | -1.5
CC(C)(C)[S@@](=O)N1Cc2cc(C(=O)N3CCCCC3)nc(-c3cccc(-c4ccc(F)cc4)c3)c2[C@H]1CCO | 0 | -4 | 3.7
CCC(=O)N(C)C[C@H]1Oc2cc(-c3ccccc3C)ccc2S(=O)(=O)N([C@H](C)CO)C[C@H]1C | 0 | -1 | 0.4
O=C(C[C@H]1C[C@H]2c3cc(NC(=O)Nc4ccc(C(F)(F)F)cc4)ccc3O[C@H]2[C@@H](CO)O1)NCC1CC1 | -4 | -1 | -2.4
CS(=O)(=O)N1CC(=O)N2[C@H](C1)[C@@H](c1ccc(C#CCC3CCCC3)cc1)[C@@H]2CO | 4 | 3 | 0.8
O=C(Nc1ccc(F)cc1)N1C[C@@H]2[C@H](c3ccccc31)[C@@H](CO)N2C(=O)c1ccncc1 | -3 | -2 | -1.2
O=C(C[C@H]1CC[C@@H]2[C@H](COC[C@@H](O)CN2C(=O)Nc2ccc(F)cc2)O1)NCCc1ccccc1 | -1 | -3 | 2.1
CO[C@H]1CC[C@H]2CCOc3c(C#N)cccc3C(=O)N(C)C[C@@H](c3ccccc3)CC(=O)N(C)C[C@H]1O2 | -1 | -7 | 5.5
O=C(NCC[C@@H]1CC[C@@H](NC(=O)c2cnccn2)[C@H](CO)O1)c1ccc2c(c1)OCO2 | -1 | -3 | 1.7
COc1ccc(CN2CC3(CCN(Cc4ccccn4)CC3)c3c(n(C)c4cc(OC)ccc34)[C@@H]2CO)cc1 | 3 | 15 | -13
O=C(c1ccncc1)N1C[C@@H]2[C@H](c3ccccc31)[C@H](CO)N2Cc1ccc(F)cc1 | 2 | 2 | -0.2
COc1ccc2c3c(n(C)c2c1)[C@H](CO)N(C(=O)Nc1ccc(F)cc1)CC31CCN(C(=O)NC(C)C)CC1 | -6 | 0 | -6.4
COc1ccc(-c2ccc3c(c2)[C@H]2[C@H](CCN2C(=O)c2ccc4c(c2)OCO4)[C@H](CO)N3C)cc1 | ? | . | .
CN1C[C@@H]2[C@H](c3ccccc31)[C@H](CO)N2C(=O)CN1CCOCC1 | 1 | 3 | -2.6
CCCNC(=O)N(C)C[C@@H]1Oc2cc(C#C[C@@H](C)O)ccc2S(=O)(=O)N([C@@H](C)CO)C[C@@H]1C | 0 | 3 | -2.6
C[C@H](O)C#Cc1ccc([C@@H]2[C@H](CO)N3CCCCN(C(=O)c4cccc(F)c4)C[C@@H]23)cc1 | 13 | 26 | -13
COc1ccc(S(=O)(=O)Nc2ccc3c(c2)C(=O)N(C)C[C@@H](OC)[C@H](C)CN(C)[C@H](C)CO3)cc1 | 3 | 0 | 3.1
COC(=O)C[C@@H]1CC[C@H]2[C@H](COc3ccc(NC(=O)c4ccccc4F)cc3C(=O)N2C)O1 | -4 | -1 | -2.1
C[C@H]1CN([C@@H](C)CO)S(=O)(=O)c2ccc(C#Cc3ccccn3)cc2O[C@H]1CN(C)Cc1cccc(F)c1 | -3 | -1 | -2.4
O=C(CCN1CCCCC1)N[C@@H]1CC[C@H](CC(=O)N2CCC(Cc3ccccc3)CC2)O[C@H]1CO | ? | . | .
OC[C@H]1[C@@H](c2ccc(Br)cc2)[C@H]2CN(Cc3cncnc3)CCCCN21 | -1 | -2 | 1.2
CN1C(=O)c2cc(NS(=O)(=O)CC(F)(F)F)ccc2OC[C@H]2O[C@@H](CC(=O)NCc3ccc(Cl)c(Cl)c3)CC[C@@H]21 | 4 | 1 | 2.8
C[C@@H]1CN([C@@H](C)CO)C(=O)CCCn2nncc2CO[C@H]1CN(C)S(C)(=O)=O | 2 | 2 | -0.4
CCNC(=O)[C@H]1[C@H](CO)[C@H]2Cn3c(ccc(-c4ccccc4)c3=O)[C@H]2N1Cc1ccccc1 | -9 | -3 | -6.1
C[C@@H]1CN([C@@H](C)CO)C(=O)c2ccccc2-c2ccccc2CO[C@@H]1CN(C)Cc1ccc(F)cc1 | 0 | -4 | 3.6

Reformatted with values under each structure: entries from further up.
Under each structure: DUX4 txn inh, DUX4 txn inh difference, DUX4 txn inh control
> CCCNC(=O)N(C)C[C@@H]1Oc2cc(C#C[C@@H](C)O)ccc2S(=O)(=O)N([C@@H](C)CO)C[C@@H]1C
  0, 3, -2.6
> C[C@H](O)C#Cc1ccc([C@@H]2[C@H](CO)N3CCCCN(C(=O)c4cccc(F)c4)C[C@@H]23)cc1
  13, 26, -13
> COc1ccc(S(=O)(=O)Nc2ccc3c(c2)C(=O)N(C)C[C@@H](OC)[C@H](C)CN(C)[C@H](C)CO3)cc1
  3, 0, 3.1

Remaining list, next part.
SMILES | DUX4 txn inh | DUX4 txn inh difference | DUX4 txn inh control
COCC(=O)N1[C@H](CO)[C@H](c2ccccc2C2=CCCCC2)[C@@H]1C#N | 3 | -12 | 15
Cc1noc(C)c1NC(=O)N(C)C[C@H]1OCc2ccccc2-c2ccccc2C(=O)N([C@@H](C)CO)C[C@H]1C | 24 | 8 | 17
O=C(C[C@@H]1C[C@@H]2c3cc(NC(=O)NC4CCCC4)ccc3O[C@@H]2[C@H](CO)O1)NCCN1CCCCC1 | 3 | -3 | 6.1
CCCN(C)C[C@@H]1Oc2cc(C#CC3(O)CCCC3)ccc2S(=O)(=O)N([C@@H](C)CO)C[C@@H]1C | 3 | -1 | 3.8
CCC(=O)N1[C@@H]2Cn3c(cccc3=O)[C@H]1[C@@H](C(=O)NC1Cc3ccccc3C1)[C@@H]2CO | -2 | -13 | 11
CNC[C@@H]1Oc2c(NS(=O)(=O)c3ccc(Cl)cc3)cccc2C(=O)N([C@@H](C)CO)C[C@@H]1C | 2 | -1 | 3.5
Cc1ccccc1S(=O)(=O)N1[C@@H]2CNC[C@H]1[C@@H]2c1ccc(-c2ccc(C#N)cc2)cc1 | 5 | -1 | 5.7
COc1cccc(-c2ccc3c(c2)[C@H]2[C@H](CCN2C(=O)c2ccc4c(c2)OCO4)[C@H](CO)N3C)c1 | ? | . | .
C[C@@H]1CCCCO[C@@H](CN(C)S(C)(=O)=O)[C@@H](C)CN([C@H](C)CO)C(=O)c2cc(NC(=O)NC3CCCCC3)ccc2O1 | 2 | -6 | 7.9
C[C@@H](O)C#Cc1cnc2c(c1)C(=O)N([C@@H](C)CO)C[C@H](C)[C@@H](CN(C)C(=O)c1ccccc1F)O2 | 1 | 3 | -1.7
CCCN1[C@H](C(=O)Nc2nccs2)[C@@H](CO)[C@@H]2Cn3c(ccc(-c4ccccc4OC)c3=O)[C@@H]21 | -1 | 6 | -7.1
Cc1ccc(S(=O)(=O)Nc2ccc3c(c2)C(=O)N([C@H](C)CO)C[C@H](C)[C@@H](CN(C)C(=O)NC2CCCCC2)OCCCC[C@@H](C)O3)cc1 | 0 | -5 | 4.9
COc1ccccc1-c1ccccc1[C@@H]1[C@@H](CO)N(C(=O)C2CC2)[C@H]1C#N | 0 | -6 | 6.1
COc1cccc(-c2ccc(C3[C@@H]4CN(C(=O)Nc5ccccc5F)C[C@H]3N4)cc2)c1 (some centres not stated) | ? | 5 | -8.3
CCCC(=O)Nc1ccc2c(c1)C(=O)N(C)[C@@H]1CC[C@H](CC(=O)NCCOC)O[C@@H]1CO2 | 1 | 2 | -1.6
COc1ccc(-c2ccc3c(c2)[C@H]2[C@H](CCN2C(=O)C2CCOCC2)[C@@H](CO)N3C)cc1 | 14 | 16 | -1.1
CN(C)CC(=O)N[C@H]1C=C[C@@H](CC(=O)NCCN2CCCCC2)O[C@H]1CO | 5 | 6 | -1.8
CN(C)CCCNC(=O)C[C@@H]1CC[C@H]2[C@H](COc3ccc(NS(C)(=O)=O)cc3C(=O)N2C)O1 | -4 | -5 | 1.3
N#C[C@@H]1[C@@H](c2ccc(-c3ccccc3F)cc2)[C@H](CO)N1C(=O)c1ccccn1 | 0 | -5 | 4.7
C[C@H]1CN([C@@H](C)CO)C(=O)c2cc(NC(=O)CCCCCC(=O)Nc3ccccc3N)ccc2O[C@@H]1CN(C)C(=O)Nc1ccc(C(F)(F)F)cc1 | -3 | 2 | -5.3
COc1ccc(NC(=O)Nc2ccc3c(c2)[C@H]2C[C@@H](CC(=O)NCc4ccccn4)O[C@@H](CO)[C@H]2O3)cc1 | 4 | -1 | 4.6
CS(=O)(=O)Nc1ccc2c(c1)[C@@H]1C[C@H](CC(=O)NCc3ccc(Cl)cc3)O[C@H](CO)[C@@H]1O2 | -1 | -2 | 1.1

Single values from the entries so far.
For DUX4 txn inh difference, O=C(C[C@@H]1C[C@@H]2c3cc(NC(=O)NC4CCCC4)ccc3O[C@@H]2[C@H](CO)O1)NCCN1CCCCC1 shows -3
For DUX4 txn inh, COc1ccc(NC(=O)Nc2ccc3c(c2)[C@H]2C[C@@H](CC(=O)NCc4ccccn4)O[C@@H](CO)[C@H]2O3)cc1 shows 4
For DUX4 txn inh difference, CN(C)CC(=O)N[C@H]1C=C[C@@H](CC(=O)NCCN2CCCCC2)O[C@H]1CO shows 6
For DUX4 txn inh, Cc1ccc(S(=O)(=O)Nc2ccc3c(c2)C(=O)N([C@H](C)CO)C[C@H](C)[C@@H](CN(C)C(=O)NC2CCCCC2)OCCCC[C@@H](C)O3)cc1 shows 0
For DUX4 txn inh, CCCN(C)C[C@@H]1Oc2cc(C#CC3(O)CCCC3)ccc2S(=O)(=O)N([C@@H](C)CO)C[C@@H]1C shows 3
For DUX4 txn inh control, CS(=O)(=O)Nc1ccc2c(c1)[C@@H]1C[C@H](CC(=O)NCc3ccc(Cl)cc3)O[C@H](CO)[C@@H]1O2 shows 1.1

Compound activity deposited in PubChem BioAssay by Broad Institute.
